Source: PubChem BioAssay (Broad Institute)
NOMO-1 viab: STK33 inhibitor candidate reducing NOMO-1 cell viability. NOMO-1 AML viability, CellTiter-Glo luminescence, 72 h. inhibition, % (no concentration beside the values). actives 7.5% (n = 37,000). AID 2330;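 active = most replicates above 80%; inconclusive = exactly half above 80%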;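 also: wells of about 30 µL received 25 nL stock; 0% = median of vehicle wells and 100% = reference inhibitor level; the first replicate is given; inactives centre near 10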
* = called active by the depositor; u = inconclusive. Some of the compounds tested; rates above refer to the full screens.

No. | smiles | NOMO-1 viab
1 | Oc1ccc2c(c1)OCC1c3cc4c(cc3OC21)OCO4 (stereo unspecified) | 40
2 | C[C@@H]1CN([C@H](C)CO)C(=O)c2cc(NC(=O)Nc3ccc4c(c3)OCO4)ccc2O[C@H]1CN(C)Cc1ccc(C(F)(F)F)cc1 | 38
3 | C[C@H]1CN([C@@H](C)CO)C(=O)c2cc(NC(=O)C3CC3)ccc2O[C@H]1CN(C)Cc1ccc(C(=O)O)cc1 | -12
4 | COc1ccc(NC(=O)COc2ccc(C)c(C)c2)cc1NC(=O)c1ccco1 | -4
5 | Cc1ccc(NC(=O)CC(C(=O)O)N(C)C)cc1 (stereo unspecified) | -2
6 | Cc1noc(C)c1S(=O)(=O)Nc1cccc2c1O[C@@H](CN(C)Cc1ccc(C(=O)Nc3ccccc3N)cc1)[C@@H](C)CN([C@@H](C)CO)C2=O | 39
7 | S=c1cc[nH]c(=S)n1-c1nc(-c2ccccc2)sc1-c1ccccc1 | -2
8 | O=C(CSc1n[nH]c(-c2ccco2)n1)c1ccc(Cl)cc1 | 28
9 | C[C@@H]1CCCCO[C@H](CN(C)S(=O)(=O)c2cn(C)cn2)[C@@H](C)CN([C@H](C)CO)C(=O)c2cc(N(C)C)ccc2O1 | -1
10 | CC(C)NC(=O)N(C)C[C@@H]1Oc2c(NS(=O)(=O)c3ccc(F)cc3)cccc2C(=O)N([C@@H](C)CO)C[C@H]1C | 4
11 | C[C@@H]1CN([C@H](C)CO)C(=O)c2cc(NC(=O)Cc3ccccc3)ccc2O[C@@H]1CN(C)C(=O)Nc1cccc2ccccc12 | 73
12 | C[C@@H]1CN([C@@H](C)CO)C(=O)c2cc(NC(=O)Nc3cccc4ccccc34)ccc2O[C@H]1CN(C)C(=O)Nc1ccc(F)cc1 | 27

A second format for part of the listing above:
9	C[C@@H]1CCCCO[C@H](CN(C)S(=O)(=O)c2cn(C)cn2)[C@@H](C)CN([C@H](C)CO)C(=O)c2cc(N(C)C)ccc2O1
  NOMO-1 viab: -1
10	CC(C)NC(=O)N(C)C[C@@H]1Oc2c(NS(=O)(=O)c3ccc(F)cc3)cccc2C(=O)N([C@@H](C)CO)C[C@H]1C
  NOMO-1 viab: 4
11	C[C@@H]1CN([C@H](C)CO)C(=O)c2cc(NC(=O)Cc3ccccc3)ccc2O[C@@H]1CN(C)C(=O)Nc1cccc2ccccc12
  NOMO-1 viab: 73
12	C[C@@H]1CN([C@@H](C)CO)C(=O)c2cc(NC(=O)Nc3cccc4ccccc34)ccc2O[C@H]1CN(C)C(=O)Nc1ccc(F)cc1
  NOMO-1 viab: 27

A draw from above in order of heavy-atom count, rising:
No. | smiles | NOMO-1 viab
8 | O=C(CSc1n[nH]c(-c2ccco2)n1)c1ccc(Cl)cc1 | 28
4 | COc1ccc(NC(=O)COc2ccc(C)c(C)c2)cc1NC(=O)c1ccco1 | -4
3 | C[C@H]1CN([C@@H](C)CO)C(=O)c2cc(NC(=O)C3CC3)ccc2O[C@H]1CN(C)Cc1ccc(C(=O)O)cc1 | -12
2 | C[C@@H]1CN([C@H](C)CO)C(=O)c2cc(NC(=O)Nc3ccc4c(c3)OCO4)ccc2O[C@H]1CN(C)Cc1ccc(C(F)(F)F)cc1 | 38

The listing continues:
No. | smiles | NOMO-1 viab
13 | N#CCSc1nc2cc(C(=O)NCc3ccccc3)ccc2c(=O)n1CCc1ccccc1 | u
14 | C[C@@H]1CCCCO[C@@H](CN(C)C(=O)Cc2ccccc2)[C@@H](C)CN([C@H](C)CO)C(=O)c2cc(NC(=O)Nc3ccccc3)ccc2O1 | -2
15 | NC(=O)C1(N2CCCCC2)CCN(CC(=O)Nc2cc(Cl)ccc2Cl)CC1 | 2
16 | COc1cccc(C2CC(C(F)(F)F)n3ncc(C(=O)O)c3N2)c1 (stereo unspecified) | -4
17 | COC(=O)c1ccc(NC(=O)CN(c2cc(Cl)c(Cl)cc2Cl)S(C)(=O)=O)cc1 | 61
18 | C[C@H]1CN([C@@H](C)CO)C(=O)c2cccc(NC(=O)c3ccncc3)c2O[C@H]1CN(C)Cc1ccc(C(=O)Nc2ccccc2N)cc1 | 36
19 | C[C@H](CO)N1C[C@H](C)[C@@H](CN(C)CC2CC2)Oc2c(NS(=O)(=O)c3ccc(F)cc3)cccc2C1=O | -11
20 | O=C(O)C1CC1C(=O)Nc1ccc(Oc2ccc(Cl)cc2C2CCCCC2)nc1 (stereo unspecified) | -7
21 | COc1ccc(CN(C)C[C@@H]2Oc3c(NC(=O)Nc4ccccc4)cccc3C(=O)N([C@H](C)CO)C[C@H]2C)cc1 | 73
22 | Cc1cccc(N2C(=O)c3ccc(C(=O)Nc4c[nH]c(=O)[nH]c4=O)cc3C2=O)c1C | -13
23 | COc1cc(NC(=O)COc2ccccc2C)ccc1NC(=O)c1ccccc1Cl | 27
24 | COc1ccc(C)cc1N(CC(=O)Nc1ccc(C)c(Cl)c1)S(C)(=O)=O | -13
25 | Cc1cc(C)nc(SCCCn2c(=O)[nH]c3ccccc32)n1 | 8
26 | CCOC(=O)CCSc1nnc2c3ccccc3n(C)c2n1 | 6
27 | O=C(CN1C(=O)c2ccccc2S1(=O)=O)Nc1ccc(F)c(F)c1 | 37
28 | Cc1cc(C)cc(N2C(=O)CC(SCC(=O)Nc3ccc(Br)cc3)C2=O)c1 (stereo unspecified) | -1
29 | C[C@H](CO)N1C[C@H](C)[C@H](CN(C)S(=O)(=O)c2ccccc2)Oc2ccc(NS(=O)(=O)c3cn(C)cn3)cc2C1=O | 25
30 | CNC[C@H]1Oc2c(NC(=O)C3CCOCC3)cccc2C(=O)N([C@@H](C)CO)C[C@H]1C | -3
31 | Cc1ccc(NC(=O)c2ccc(NCc3ccco3)c([N+](=O)[O-])c2)cc1Cl | 14
32 | CCOC(=O)c1sc(SC)c2c1CCCC21SCCS1 | 17
33 | COc1ccc(S(=O)(=O)Nc2cccc3c2O[C@@H](CN(C)Cc2ccc(Oc4ccccc4)cc2)[C@@H](C)CN([C@@H](C)CO)C3=O)cc1 | 36
34 | C[C@@H]1CCCCO[C@H](CN(C)Cc2ccc(C(F)(F)F)cc2)[C@@H](C)CN([C@H](C)CO)C(=O)c2cc(N(C)C)ccc2O1 | 30
35 | Cc1noc(C)c1S(=O)(=O)Nc1cccc2c1O[C@H](CN(C)Cc1ccc(Oc3ccccc3)cc1)[C@H](C)CN([C@@H](C)CO)C2=O | 30
36 | C[C@H](CO)N1C[C@H](C)[C@H](CN(C)Cc2ccncc2)Oc2ccc(NC(=O)CCN3CCOCC3)cc2CC1=O | 1
37 | C[C@H]1CN([C@@H](C)CO)C(=O)c2cc(NS(=O)(=O)c3ccc(Cl)cc3)ccc2O[C@@H]1CN(C)S(C)(=O)=O | 19
38 | C[C@@H]1CCCCO[C@H](CN(C)C)[C@@H](C)CN([C@H](C)CO)C(=O)c2cc(NC(=O)CCCN(C)C)ccc2O1 | -1
39 | COC(=O)C1=CO[C@@H](O[C@@H]2O[C@H](CO)[C@@H](O)[C@H](O)[C@H]2O)[C@@H]2[C@@](C)(O)[C@@H](OC(=O)/C=C/c3ccc(OC)c(OC)c3)C[C@]12O | 12
40 | Cc1ccc(C)c(NC(=O)Cn2cc(C(=O)C3CC3)c3ccccc32)c1 | u
41 | O=S(=O)(c1ccccc1)c1nc(-c2ccccc2Cl)oc1NCCN1CCOCC1 | -6
42 | C[C@H]1CN([C@@H](C)CO)C(=O)c2cc(NC(=O)CCN3CCOCC3)ccc2O[C@H]1CN(C)S(C)(=O)=O | 26
43 | CN(C)CC/C=C1\c2ccccc2CSc2ccccc21 | 30
44 | Cc1noc(C)c1S(=O)(=O)Nc1ccc2c(c1)CC(=O)N([C@@H](C)CO)C[C@H](C)[C@@H](CN(C)C(=O)Nc1ccc3c(c1)OCO3)O2 | -8
45 | CC1=C(CCC2=CC(=O)OC2O)[C@@]2(C)CCC[C@]3(C)C(=O)OC(C1=O)[C@@H]32 (stereo partly specified) | -3
46 | COc1cccc(NC(=O)C(C)NS(=O)(=O)c2ccc(Cl)cc2)c1 (stereo unspecified) | -2
47 | C[C@@H]1CCCCO[C@H](CN(C)C(=O)NC2CCCCC2)[C@@H](C)CN([C@H](C)CO)C(=O)c2cc(NC(=O)Nc3ccc(C(F)(F)F)cc3)ccc2O1 | 33
48 | CC1(C)CC(=O)C2=C(C1)N(Cc1ccco1)C(=O)C2(NC(=O)c1ccc(Cl)cc1Cl)C(F)(F)F (stereo unspecified) | 15
49 | CCN(CC(=O)Nc1cccc(OC)c1)S(=O)(=O)c1ccc(Cl)cc1 | -6
50 | C[C@@H]1CCCCO[C@@H](CN(C)Cc2ccccc2)[C@@H](C)CN([C@H](C)CO)C(=O)c2cc(NC(=O)CCCN(C)C)ccc2O1 | 10
51 | C[C@@H]1CN([C@@H](C)CO)C(=O)c2cccc(NC(=O)NC3CCCCC3)c2O[C@@H]1CN(C)C(=O)Nc1ccc(C(F)(F)F)cc1 | 94*
52 | COc1ccc(S(=O)(=O)N(C)C[C@@H]2Oc3c(NC(=O)c4cnccn4)cccc3C(=O)N([C@@H](C)CO)C[C@@H]2C)cc1 | 0
53 | COC(=O)c1sc(SC)c(-c2ccn(S(=O)(=O)c3ccc(Cl)cc3)n2)c1C | -4
54 | COc1ccc(S(=O)(=O)N(C)C[C@@H]2Oc3ccc(NC(=O)C4CCCCC4)cc3C(=O)N([C@H](C)CO)C[C@H]2C)cc1 | -4
55 | CSc1c(CC(=O)NN)n(C)c2ccccc12 | -20
56 | Cc1c(Cl)cccc1NC(=O)CN(c1ccc2c(c1)OCCO2)S(C)(=O)=O | 3
57 | Cc1noc(C)c1S(=O)(=O)N(C)C[C@H]1Oc2c(NC(=O)c3cnccn3)cccc2C(=O)N([C@H](C)CO)C[C@H]1C | 0
58 | COc1ccc(S(=O)(=O)Nc2ccc3c(c2)C(=O)N([C@@H](C)CO)C[C@H](C)[C@@H](CN(C)Cc2ccc(Cl)c(Cl)c2)O3)cc1 | -1
59 | O=C(Nc1ccccc1C(=O)NCCN1CCOCC1)c1ccco1 | 26
60 | COC(=O)c1cc(OC)c(OC)cc1NC(=O)COc1ccccc1 | 17
61 | COc1ccc(NC(=O)Nc2ccc3c(c2)CC(=O)N([C@H](C)CO)C[C@@H](C)[C@H](CN(C)C(=O)Nc2c(C)noc2C)O3)cc1 | 20
62 | C[C@@H]1CN([C@@H](C)CO)C(=O)c2cc(NC(=O)CCCCCC(=O)Nc3ccccc3N)ccc2O[C@H]1CN(C)C(=O)NC1CCCCC1 | -8
63 | COc1ccc(Cc2nnc(SCc3nc4ccccc4c(=O)[nH]3)o2)cc1 | 9
64 | COc1ccc(NC(=O)Nc2ccc3c(c2)CC(=O)N([C@@H](C)CO)C[C@H](C)[C@@H](CN(C)Cc2ccncc2)O3)cc1 | -19
65 | C[C@@H]1CN([C@H](C)CO)C(=O)Cc2cc(NS(C)(=O)=O)ccc2O[C@H]1CN(C)Cc1ccc2c(c1)OCO2 | 13
66 | CC(C)NC(=O)N(C)C[C@@H]1Oc2ccc(NS(=O)(=O)c3ccc(F)cc3)cc2C(=O)N([C@@H](C)CO)C[C@@H]1C | -5
67 | Cc1cc2c(c(=O)n1CCCn1ccnc1)C(c1ccccc1)C(C#N)=C(N)O2 (stereo unspecified) | 29
68 | Cc1cc(O)cc(Oc2cc(C)cc(O)c2O)c1 | 61
69 | COc1ccc(C)cc1NC(=O)CN(c1cc(Cl)c(Cl)cc1Cl)S(C)(=O)=O | 9
70 | COc1ccc(OC)c(S(=O)(=O)Nc2cccnc2)c1 | -8
71 | C[C@H](CO)N1C[C@H](C)[C@H](CN(C)S(=O)(=O)c2ccc(F)cc2)Oc2ccc(NC(=O)Cc3ccccc3)cc2CC1=O | -3
72 | Cc1noc(C)c1S(=O)(=O)Nc1cccc2c1O[C@H](CN(C)S(=O)(=O)c1cccs1)[C@H](C)CN([C@H](C)CO)C2=O | 29

Following part.
No. | smiles | NOMO-1 viab
73 | C[C@@H]1CN([C@@H](C)CO)C(=O)c2cc(NC(=O)Nc3ccccc3)ccc2O[C@@H]1CN(C)S(C)(=O)=O | 3
74 | C[C@H]1CN([C@@H](C)CO)C(=O)c2cccc(NS(=O)(=O)c3cn(C)cn3)c2O[C@H]1CN(C)Cc1ccccc1 | -17
75 | COc1ccc(C)cc1NC(=O)CN(c1cccc(F)c1)S(C)(=O)=O | -9
76 | Cc1noc(C)c1S(=O)(=O)N(C)C[C@H]1Oc2ccc(NS(=O)(=O)c3ccc(Cl)cc3)cc2CC(=O)N([C@@H](C)CO)C[C@@H]1C | -9
77 | C[C@@H]1CN([C@@H](C)CO)C(=O)c2cccc(NC(=O)c3ccncc3)c2O[C@H]1CN(C)C(=O)Nc1ccc2c(c1)OCO2 | -11
78 | COc1ccc(NC(=O)Nc2ccc3c(c2)CC(=O)N([C@H](C)CO)C[C@@H](C)[C@@H](CN(C)CC2CC2)O3)cc1 | 17
79 | Cc1noc(C)c1S(=O)(=O)N(C)C[C@@H]1Oc2ccc(NS(=O)(=O)c3ccc(F)cc3)cc2CC(=O)N([C@@H](C)CO)C[C@@H]1C | 8
80 | C[C@@H]1CN([C@@H](C)CO)C(=O)c2cc(NC(=O)Cc3cn(C)c4ccccc34)ccc2O[C@@H]1CN(C)S(C)(=O)=O | -8
81 | CC(C)NC(=O)Nc1ccc2c(c1)C(=O)N([C@@H](C)CO)C[C@H](C)[C@H](CN(C)Cc1ccc(C(F)(F)F)cc1)O2 | 29
82 | COCCCN1C(=O)c2oc3ccc(Br)cc3c(=O)c2C1c1cccc([N+](=O)[O-])c1 (stereo unspecified) | -11
83 | C[C@H]1CN([C@@H](C)CO)C(=O)c2cc(NC(=O)Cc3cn(C)c4ccccc34)ccc2O[C@H]1CN(C)Cc1ccc(Oc2ccccc2)cc1 | 31
84 | COc1ccc(S(=O)(=O)Nc2c(C)nc3nc[nH]n3c2=O)cc1 | 33
85 | COc1ccc(NC(=O)N(C)C[C@@H]2Oc3c(NC(=O)Nc4ccc(F)cc4)cccc3C(=O)N([C@@H](C)CO)C[C@@H]2C)cc1 | 6
86 | C=CCn1c2ccccc2c2nnc(SCc3ccc([N+](=O)[O-])cc3)nc21 | 12
87 | Cc1ccc(S(=O)(=O)Nc2ccc3c(c2)C(=O)N([C@@H](C)CO)C[C@H](C)[C@@H](CN(C)S(=O)(=O)c2ccc(C)cc2)O3)cc1 | -8
